miR-21 FLuc: miR-21 reporter, rising signal | HeLa miR-21 FLuc reporter, luciferase, 48 h | Potency, µM (top dose mostly 38.3 µM), inactives show at the top dose reporter change, positive = more light | 340,000 tested, under 10 active | AID 2288; active = well fitted rising curve with a large enough effect; inconclusive = small, poorly fitted or top-dose-only effect; inactive = no such curve, though single readings can be large or run the other way;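 also: % of control where 0% means no effect; miR-21 action dims this reporter so a rising signal means less miR-21 action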
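HeLa cells stably expressing CMV-driven firefly luciferase with a downstream miR-21 binding sequence, endogenously expressing miR-21, were treated with titrations (up to about 40uM final) for 48 hours at 37 degree Celsius. Luciferase luminescence was read after lysis.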
GLA inh pH 4.5: blocks human alpha-galactosidase A at pH 4.5; P06280; purified enzyme, 4-MU-alpha-Gal fluorescence, pH 4.5; activity change, negative = inhibition, % at 105 µM; 230,000 tested, under 10 active; AID 1467; inconclusive = small, poorly fitted or top-dose-only inhibition, or a rising curve; inactive = flat fitted curve, though single readings scatter; no compound was filed as active;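 also: 0% = full activity with enzyme and -100% = basal without enzyme; dose as in the result columns while the protocol names 77 µM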
Target sequence (P06280 whole entry, looked up): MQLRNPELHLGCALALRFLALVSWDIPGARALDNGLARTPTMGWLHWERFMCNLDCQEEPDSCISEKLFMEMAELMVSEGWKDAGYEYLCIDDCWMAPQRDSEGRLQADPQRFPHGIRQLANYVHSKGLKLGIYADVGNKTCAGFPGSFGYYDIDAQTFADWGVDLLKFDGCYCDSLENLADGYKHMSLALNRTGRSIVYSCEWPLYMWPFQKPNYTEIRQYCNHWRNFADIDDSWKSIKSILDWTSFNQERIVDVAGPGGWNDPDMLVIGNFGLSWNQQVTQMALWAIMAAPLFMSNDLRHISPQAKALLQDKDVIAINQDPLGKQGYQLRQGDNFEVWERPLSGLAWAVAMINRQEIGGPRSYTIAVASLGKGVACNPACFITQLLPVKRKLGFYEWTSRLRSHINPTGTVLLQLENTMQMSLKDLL
Rango-impB inh: prevents formation of the Rango-importin beta complex; Rango CFP/YFP FRET sensor + importin beta, 45 min; AID 540263; actives 0.031% (n = 340,000); Q14974; Potency, µM (doses to about 92.2 µM), inactives show top-dose inhibition of complex formation; active = rising FRET ratio curve, often small or poorly fitted; inconclusive = mostly compound fluorescence or quenching in the first reads; inactive = flat curves in all reads;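 also: potency is read from the fitted curve at half-maximal effect; 0% = DMSO wells and 100% = buffer wells lacking importin beta; nearly all actives have a fitted effect of over 15% in size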
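Inhibition scored from the CFP 486 nm/YFP 530 nm FRET ratio 45 min after adding 0.125 microM importin beta to 50 nM Rango biosensor preincubated 5 min with compound (room temperature, PBS with DTT, Tween-20, BSA). No-importin wells as positive control.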
Rango dissoc inh: prevents RanGTP from dissociating the Rango-importin beta complex; Potency, µM (series often up to 46.1 µM), for the others: at the top dose activity change, negative = inhibition; actives 0.071% (n = 340,000); Biochemical FRET Rango-importin beta, RanGTP-induced dissociation; active means falling FRET ratio curve, often poorly fitted, with flat reads before Ran was added; inconclusive means other falling curves, or compound fluorescence or quenching; inactive means flat or rising ratio curve;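 also: potency is read from the fitted curve at half-maximal effect; % of control where 0% means no effect; nearly all actives have a fitted effect of over 45% in size; -100% = wells without RanGTP and RCC1; the record marks most hits as doubtful in a second field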
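Rango/importin beta premix (0.1/0.25 uM final), PBS + 1 mM DTT + 0.02% Tween-20 + 0.1% BSA; cpd 5 min RT; FRET pre-read; + RanGTP-RCC1 (0.6 uM Ran, 2 mM GTP, 0.2 uM RCC1); 45 min RT; FRET post-read, ex 430, em 486/530 nm.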
The depositor's hits bear a star; ? = inconclusive; / = no result given; & = joins results of further samples.

entry	Molecule	miR-21 FLuc	GLA inh pH 4.5
1	CN1CCN(CCCNC(=O)C2CC(=O)N(C3CCCCC3)C2)CC1 (stereo not given)	-4%	6
2	COC(=O)c1ccc(NC(=O)c2cc(-c3ccncc3)nc3ccccc23)cc1	/	/
3	Cc1nnc(SCc2cccc(Cl)c2)n(N)c1=O	2%	0
4	Cc1ccccc1Cn1cc(NS(=O)(=O)c2cn(C)nc2C)cn1	-3%	/
5	O=C(O)CCCNc1cc(N2CCN(C(=O)c3ccco3)CC2)c2noc3c2c1C(=O)c1ccccc1-3	19%	/
6	O=C(c1[nH]ncc1-c1ccc(Cl)cc1)C1CO1 (stereo not given)	?	-25
7	CN1/C(=C\C=N\O)C(C)(C)c2ccccc21	-4%	-5
8	COC(=O)n1c(SC)nc2ccccc21	1%	-4
9	O=C(CSc1n[nH]c(-c2ccccc2)n1)c1ccccc1	-13%	-1
10	Cc1ccc(S(=O)(=O)N2CCCCC2)cc1NC(=O)CSc1nnc(C2CC2)n1N	/	/

entry	Rango-impB inh	Rango dissoc inh
1	-4.3%	10%
2	-0.1%	-1%
3	1.3%	14%
4	0.1%	-16%
5	?	?
6	-0.7%	17%
7	0.0%	1%
8	-3.5%	-24%
9	-0.3%	6%
10	-0.7%	-14%

Continued:
entry	Molecule	miR-21 FLuc	GLA inh pH 4.5
11	Cc1ccc(-c2csc(NCCc3nc4cc(Cl)c(Cl)cc4n3CCCO)n2)cc1	/	/
12	NS(=O)(=O)c1cccc(NC(=O)c2ccccc2NS(=O)(=O)c2ccc(F)cc2)c1	-2%	/
13	COc1cccc(N(CC(=O)NC2CCCC2)C(=O)CCC(=O)Nc2cc(C)on2)c1	-1%	/
14	O=C(c1cc(-c2ccc(Cl)c(Cl)c2)on1)N1CCCCC1	-38%	9
15	Cc1ccc(NC(=O)C[n+]2ccccc2)cc1C	2%	/
16	O=C(Nc1cccc(Cl)c1)Nc1c[nH]c(=O)[nH]c1=O	-1%	/
17	COCC(C)NC(=O)COCc1cc(-c2ccc3c(c2)OCO3)on1 (stereo not given)	-8%	/
18	CC(C)Oc1nc(-c2ccc(Cl)cc2)nc2ccccc12	-4%	2
19	CCOC(=O)c1cc(/C(C)=N/OC(=O)c2ccc(C(C)(C)C)cc2)on1	-2%	-3
20	COc1ccccc1CNc1cc(CSc2ccc(Cl)cc2)nc(C)n1	-3%	2

entry	Rango-impB inh	Rango dissoc inh
11	0.6%	6%
12	1.9%	21%
13	3.8%	-4%
14	-0.3%	1%
15	4.4%	-11%
16	-0.6%	-7%
17	0.1%	-5%
18	-1.5%	-13%
19	4.1%	4%
20	5.1%	-11%

Additional structures
entry	Molecule	miR-21 FLuc	GLA inh pH 4.5
21	CCCCn1c(N)c(N(CCC(C)C)C(=O)c2ccc(N3CCCC3=O)cc2)c(=O)[nH]c1=O	/	/
22	Cc1ccc(CS(=O)(=O)Cc2ccc(C(=O)NCc3ccccn3)o2)cc1	-1%	6
23	Cc1ccc2nc(N(CCCN(C)C)C(=O)c3ccco3)sc2c1	-40%&-58%	-11
24	Cn1c(=O)n(CC(=O)N2CCN(c3nnc(-c4ccccc4)c4ccccc34)CC2)c2ccccc21	23%	5
25	CCn1c(=O)c(C(=O)NCc2ccc3c(c2)OCO3)c(O)c2ccccc21	0%	/
26	COc1cc(/C=N/NC(=O)Cc2cccs2)c([N+](=O)[O-])cc1OC	1%	1
27	NC(=O)C1CCN(C2CC(=O)N(Cc3cccs3)C2=O)CC1 (stereo not given)	0%	-4
28	CCOCCCn1c(=S)[nH]c2cc(C(=O)NCCCN(CC)CC)ccc2c1=O	-1%	-1
29	O=C(O)c1ccc(S(=O)(=O)c2ccc3c(c2)C(=O)N(NC(=O)c2ccccc2)C3=O)cc1	-61%	5
30	Nc1c(C(=O)Nc2ccccc2)c2nc3ccccc3nc2n1CCCN1CCOCC1	10%	-3

entry	Rango-impB inh	Rango dissoc inh
21	-3.4%	-13%
22	-4.5%	12%
23	-2.9%	2%
24	4.0%	-18%
25	-0.5%	-7%
26	5.1%	-12%
27	-4.3%	4%
28	-0.8%	3%
29	2.2%	-1%
30	?	?

Going on with the list.
entry	Molecule	miR-21 FLuc	GLA inh pH 4.5
31	CC1CCCCN1S(=O)(=O)c1ccc(S(=O)(=O)N(CC(=O)Nc2ccccc2)Cc2cccs2)cc1 (stereo not given)	19%	-7
32	Cc1c(NS(=O)(=O)c2cc(C(=O)NCC3CCCO3)cc(Cl)c2Cl)c(=O)n(-c2ccccc2)n1C (stereo not given)	/	/
33	COc1cccc2c1c(NC(=O)c1cc(C)on1)nn2C	2%	-1
34	Cc1nn(C)c(C(=O)NNC(=S)Nc2ccc(Cl)cc2)c1[N+](=O)[O-]	-5%	-2
35	O=C(NCc1ccccc1F)C(=O)NCC1OCCCN1S(=O)(=O)c1cccs1 (stereo not given)	-4%	/
36	COc1cccc(OC)c1C(=O)Nc1ccncc1	/	/
37	COCCn1c(N)c(NCc2ccccc2)c(=O)n(CC(=O)Nc2cc(C)ccc2C)c1=O	-1%	-1
38	O=[N+]([O-])c1ccc(Sc2ccccc2Cl)nc1	-5%	7
39	CCOc1ccccc1NC(=O)Nc1cccc(S(N)(=O)=O)c1	0%	1
40	CC12CCC(=O)C=C1CCC1C2C(O)CC2(C)C1CCC2(O)C(=O)COC(=O)COCC(=O)O (stereo not given)	/	/

entry	Rango-impB inh	Rango dissoc inh
31	-9.9%	17%
32	-0.5%	12%
33	-1.0%	-10%
34	1.7%	5%
35	-2.6%	-11%
36	-2.5%	3%
37	0.7%	-3%
38	?	30%
39	-0.1%	-4%
40	4.1%	24%

(listing goes on)
entry	Molecule	miR-21 FLuc	GLA inh pH 4.5
41	NC(=O)[C@H]1CC2(CC(c3cccc(NC(=O)COc4ccc(Cl)cc4)c3)=NO2)CN1C(=O)Cc1ccc([N+](=O)[O-])cc1 (stereo not given in full)	?	-16
42	CCn1nnnc1SCC(=O)N1c2ccccc2NC(=O)CC1C (stereo not given)	/	/
43	CCOc1ccc(OCCCC(=O)NCCc2ccc(OC)cc2)cc1	1%	/
44	C=CC(=O)N1C/C(=C/c2ccc(F)cc2)C(=O)/C(=C\c2ccc(F)cc2)C1	/	/
45	COc1ccc(/C=C/c2nnc(NC(=O)COc3cccc(C)c3)s2)cc1	-16%	?
46	O=C(CSc1ccccc1)NCCc1ccccc1	-61%	/
47	COc1ccccc1-c1cn[nH]c(=S)n1	-3%	-7
48	Cc1ccc(CN(C)C(=O)c2ccccc2Oc2ccccc2)o1	-12%	-9
49	Cc1cc(C(C)(C)C)cc(S(=O)(=O)Nc2cccc(C(=O)O)c2)c1C	-9%	-4
50	COc1ccc(NC(=O)CNC(=O)Cc2cccc3ccccc23)cc1	/	/

entry	Rango-impB inh	Rango dissoc inh
41	-3.4%	-6%
42	-4.0%	2%
43	0.3%	24%
44	-4.4%	-19%
45	0.6%	-1%
46	0.1%	1%
47	4.7%	-5%
48	?	-1%
49	-0.7%	1%
50	0.3%	-2%

(continued)
entry	Molecule	miR-21 FLuc	GLA inh pH 4.5
51	COC(=O)C(C)n1cnc2c(cnn2-c2ccc(Cl)cc2)c1=O (stereo not given)	-22%	5
52	CC1(c2nnc(-c3cccc(Cl)c3)o2)CC(c2ccc(Cl)cc2)=NO1 (stereo not given)	/	/
53	C/C(=N/NC(=O)CNc1ccc(C)cc1)c1ccc(Br)s1	6%	3
54	CCN(c1ccccc1)S(=O)(=O)c1ccc2c(c1)CC(C)N2C(=O)C1CC1 (stereo not given)	5%	/
55	COc1ccccc1N/N=C/c1ccc2c(c1)OCO2	-38%	-3
56	O=C1CCCc2oc3c(cc(NS(=O)(=O)c4ccc5c6c(cccc46)C(=O)N5)c4ccccc43)c21	-23%	-5
57	N#Cc1ccccc1S(=O)(=O)N1CCC(C(=O)Nc2cccc(C(=O)NC3CC3)c2)CC1	/	/
58	Cc1ccccc1C(=O)Nn1cnnc1	1%	/
59	Cc1cccc(Oc2coc3cc(OC(=O)c4cc5ccccc5oc4=O)ccc3c2=O)c1	-53%	4
60	Cc1ccc(/C=C2\SC(N3CCN(C(c4ccccc4)c4ccccc4)CC3)=NC2=O)o1	0%	-2

entry	Rango-impB inh	Rango dissoc inh
51	4.8%	0%
52	-2.8%	5%
53	0.3%	13%
54	?	-4%
55	4.0%	10%
56	?	14%
57	1.8%	-3%
58	-0.3%	-5%
59	-2.5%	2%
60	-4.8%	-22%

The last 7 entries of the part above are carried over, then new ones follow.
entry	Molecule	miR-21 FLuc	GLA inh pH 4.5
54	CCN(c1ccccc1)S(=O)(=O)c1ccc2c(c1)CC(C)N2C(=O)C1CC1 (stereo not given)	5%	/
55	COc1ccccc1N/N=C/c1ccc2c(c1)OCO2	-38%	-3
56	O=C1CCCc2oc3c(cc(NS(=O)(=O)c4ccc5c6c(cccc46)C(=O)N5)c4ccccc43)c21	-23%	-5
57	N#Cc1ccccc1S(=O)(=O)N1CCC(C(=O)Nc2cccc(C(=O)NC3CC3)c2)CC1	/	/
58	Cc1ccccc1C(=O)Nn1cnnc1	1%	/
59	Cc1cccc(Oc2coc3cc(OC(=O)c4cc5ccccc5oc4=O)ccc3c2=O)c1	-53%	4
60	Cc1ccc(/C=C2\SC(N3CCN(C(c4ccccc4)c4ccccc4)CC3)=NC2=O)o1	0%	-2
61	Cc1ccc(C2=NN(C(=O)CN3C(=O)c4ccccc4S3(=O)=O)C(c3ccco3)C2)cc1 (stereo not given)	-4%	-11
62	O=C(c1cccc(S(=O)(=O)N2CCCC2)c1)N1CCN(S(=O)(=O)c2cccc(Cl)c2)CC1	/	/
63	CCOC(=O)C1(CCOC)CCN(C/C=C/c2ccccc2OC)CC1	/	/
64	CCOc1ccc(NC(=O)c2ccccc2NC(=O)CN(C)CC(=O)Nc2ccc(C)cc2)cc1	-8%	1
65	C=C1[C@@H](O)[C@H](Cc2ccccc2)N(Cc2ccccc2Br)S1(=O)=O	/	/
66	O=C1c2ccc(-c3nc4ccccc4o3)cc2C(=O)N1Cc1cccnc1	/	/
67	CCc1cc(CNC(=O)c2cccc(OC3CCN(S(C)(=O)=O)CC3)c2)on1	/	/
68	COc1ccccc1-n1c(SCC(N)=O)nnc1-c1ccccc1	-1%	1
69	COC(=O)c1ccc2nc(NC(=O)CCS(=O)(=O)c3ccccc3)sc2c1	2%	/
70	COc1ccc(NC(=O)CSc2nnc(CNC(=O)c3ccco3)o2)cc1	3%	5

entry	Rango-impB inh	Rango dissoc inh
54	?	-4%
55	4.0%	10%
56	?	14%
57	1.8%	-3%
58	-0.3%	-5%
59	-2.5%	2%
60	-4.8%	-22%
61	1.1%	2%
62	-0.2%	8%
63	0.2%	9%
64	-0.1%	0%
65	0.6%	-11%
66	1.3%	6%
67	-0.7%	13%
68	-0.3%	6%
69	0.1%	1%
70	-0.9%	-9%

The results go on.
entry	Molecule	miR-21 FLuc	GLA inh pH 4.5
71	O=S1(=O)N=C(Nc2nc3c(s2)CCCC3)c2ccccc21	-12%	-3
72	COCCCN1C(=O)C(=O)/C(=C(/O)c2ccc(OC)cc2)C1c1ccc(O)c(OC)c1 (stereo not given)	2%	-3
73	Cc1ccc(N2C(=N)SCC2=O)cc1Cl	-1%	9
74	O=C(O)CCC(=O)NNC(=O)c1cccc(Cl)c1	-8%	5

entry	Rango-impB inh	Rango dissoc inh
71	?	-17%
72	-0.9%	16%
73	-0.2%	0%
74	-4.5%	-11%

A portion of the library. The share of hits here may be higher or lower than overall.
